# Screening data: PubChem, several laboratories
# HNF4A DNA FP: change in binding of human HNF4 alpha to DNA | P41235 | HNF4a-FITC DNA binding, fluorescence polarization, 1 h | activity change, % at 10 µM | actives 0.3% (n = 360,000) | AID 1224865; in the data active = activity change above about 30%, passing the limit was not always enough;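 note: controls were the assay level and a saturating level of protein; the project sought stronger binding though the title names inhibitors; some compounds called inactive have numbers as strong as hits; positive values seem to mean higher polarization but the record does not say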
# Target sequence (P41235 whole entry, looked up): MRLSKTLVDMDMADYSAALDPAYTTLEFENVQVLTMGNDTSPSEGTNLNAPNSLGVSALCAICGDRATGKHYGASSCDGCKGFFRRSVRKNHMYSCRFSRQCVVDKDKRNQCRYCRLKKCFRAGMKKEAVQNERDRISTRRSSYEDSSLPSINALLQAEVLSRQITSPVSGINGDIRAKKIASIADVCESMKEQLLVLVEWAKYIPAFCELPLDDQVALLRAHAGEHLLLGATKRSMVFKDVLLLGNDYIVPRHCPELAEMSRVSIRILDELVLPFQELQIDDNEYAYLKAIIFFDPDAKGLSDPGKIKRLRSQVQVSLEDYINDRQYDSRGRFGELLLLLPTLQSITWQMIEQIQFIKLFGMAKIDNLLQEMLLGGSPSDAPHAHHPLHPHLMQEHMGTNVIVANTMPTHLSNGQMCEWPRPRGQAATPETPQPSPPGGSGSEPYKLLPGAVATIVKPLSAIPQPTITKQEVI
# LANA-H2A inh: blocks KSHV LANA binding to histone H2A/H2B; AID 2629; inhibition, % (no concentration beside the values); actives 0.6% (n = 320,000); Q9QR71; cell-free LANA-H2A/H2B peptide, fluorescence polarization; in the data active = inhibition mostly above about 10%, no sharp cut-off; inactive = mostly below about 6.7%;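 note: stock transfer was 7.5 nL into about 10 µL; 0% = median of vehicle wells and 100% = median of positive control wells; one replicate is shown; the record names a cut of 25% in any replicate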
# Beta2AR agonist: agonists of human beta-2 adrenergic receptor inducing internalization. response, % (concentration not given with the values). actives 0.43% (n = 340,000). Am2.2-beta2AR cells, FAP receptor internalization, flow cytometry; reference of the scale not given here;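 active = response above a set limit, near 3 SD of response in nonfluorescent compounds, cut at about 42% in these data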;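 note: stock transfer was 100 nL into about 11 µL; a reference agonist was the positive control; negative values mostly stem from fluorescent compounds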
# Target sequence (P07550 whole entry, looked up): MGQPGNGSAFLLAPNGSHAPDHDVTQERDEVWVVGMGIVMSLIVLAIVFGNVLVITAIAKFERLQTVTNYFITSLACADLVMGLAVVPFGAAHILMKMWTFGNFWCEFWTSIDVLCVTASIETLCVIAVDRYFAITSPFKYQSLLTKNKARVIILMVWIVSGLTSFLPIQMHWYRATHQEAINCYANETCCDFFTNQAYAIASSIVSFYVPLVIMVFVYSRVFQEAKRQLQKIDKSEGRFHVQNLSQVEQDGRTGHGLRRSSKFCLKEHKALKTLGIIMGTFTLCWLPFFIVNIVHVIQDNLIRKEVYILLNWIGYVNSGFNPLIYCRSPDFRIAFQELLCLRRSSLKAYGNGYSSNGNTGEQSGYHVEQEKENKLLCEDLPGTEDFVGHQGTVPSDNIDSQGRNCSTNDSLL
# RanGTP-Impb inh: inhibitors of RanGTP-importin-beta interaction, primary screen, biochemical, FRET, CFP-Ran, YFP-importin-beta, homogeneous; AID 2216; inhibition, % (no concentration beside the values); actives 1.1% (n = 300,000); cell-free CFP-Ran/YFP-importin-beta FRET ratio;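 active = most replicates above 15%; inconclusive = exactly half above 15%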;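 note: 0% = DMSO wells and 100% = Ran loaded with GDP instead of GTP; wells of about 40 µL received 100 nL stock; the first replicate is given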
# Calb FLC: affects C. albicans growth with fluconazole; C. albicans CaCi-2 (fluconazole-resistant clinical isolate) + fluconazole, Alamar Blue growth, 48 h; growth inhibition, % (test concentration not listed); actives 0.57% (n = 300,000); AID 1979;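 active = most replicates above 75%; inconclusive = exactly half above 75%; inactive = most below 75%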;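 note: all wells also contain fluconazole at 8 µg/ml as a sub-toxic cotreatment; 0% = median of DMSO wells and 100% = median of geldanamycin control wells; wells of about 8 µL received 7.5 nL stock; the first replicate is given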
# Vif TR-FRET: inhibitors of Vif binding to APOBEC3G peptide, primary screen, biochemical, TR-FRET, GST-Vif 1-94, biotin-A3G peptide, dose response retest (AID 1117319) | TR-FRET GST-Vif / biotin-A3G peptide binding; higher % means a stronger effect; test concentration not given here; strong numbers were not always called active | inhibition, %; hits with a dose series show IC50 in µM | actives 0.57% (n = 260,000);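 active = above the screen mean plus three standard deviations and confirmed in dose response; inconclusive = results disagree or hit not tested in dose response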;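 note: Vif residues 1-94 fused to GST binding biotinylated APOBEC3G peptide 110-148; 0% = full assay without inhibitor and 100% = GST in place of GST-Vif; retest series ran down from 100 µM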
# ALR H2O2 inh: inhibitors of human sulfhydryl oxidase ALR; actives 3.8% (n = 290,000); P55789; purified ALR, DTT oxidation, H2O2 HRP-luminol luminescence; inhibition, % (concentration not given with the values);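 active = mean and each replicate at 75% or more; inconclusive = only one of the two met; inactive = neither met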;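 note: stock transfer was 7.5 nL into about 7.5 µL; 0% = neutral wells and 100% = wells with inactivated enzyme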
# Target sequence (P55789 whole entry, looked up): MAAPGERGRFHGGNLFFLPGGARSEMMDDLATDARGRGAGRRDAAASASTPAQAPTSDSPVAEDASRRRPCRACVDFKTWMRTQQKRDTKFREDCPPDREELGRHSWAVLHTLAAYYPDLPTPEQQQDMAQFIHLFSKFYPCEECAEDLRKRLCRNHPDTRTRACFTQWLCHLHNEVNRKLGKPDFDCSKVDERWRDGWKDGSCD
# * = called active by the depositor; ? = inconclusive; / = not tested or not shown; + = active, no number; & = joins results of further samples. Random draw from the library (roughly 6.3% active in at least one column).
SMILES,HNF4A DNA FP,LANA-H2A inh,Beta2AR agonist,RanGTP-Impb inh,Calb FLC,Vif TR-FRET,ALR H2O2 inh
CNc1oc(C)nc1S(=O)(=O)c1ccccc1,0.5,0.3,-6,-1.2,-1,9%,15
Cc1cc(OCC(O)CN2CCCC2)ccc1C(C)C (configuration not stated),2.4,-13,-6,-1.5,11,/,-14
Cc1ccc(S(=O)(=O)N(C)C)cc1NC(=O)C1CCCN(C(=O)c2ccc(Cl)cc2)C1 (configuration not stated),-1.3,3.6,-7,-0.7,3,-2%,-12
Cc1noc(/C=C/N(C)C)c1S(=O)(=O)N1CCC(C(=O)NC(C)(C)C)CC1,-1.1,3.5,-4,-2.5,-1,-5%,22
CCCCCCCC1CC(CSC(=N)N)OC1=O (configuration not stated),-4.1,-2.4,16,-1.2,13,1%,/
O=C(Nc1ccccc1C(F)(F)F)N1CCCC1c1cccnc1 (configuration not stated),-1.4,-3.4,2,-1.4,-3,12%,1
CC(=O)Nc1ccc(S(=O)(=O)NC2CCS(=O)(=O)C2)cc1Cl (configuration not stated),-0.1,-4.3,6,1.8,4,3%,-3
CCCCn1c(N)c(N(CC(C)C)C(=O)c2cc(-c3ccc(F)cc3)nc3ccccc23)c(=O)[nH]c1=O,7.9,/,-2,4.5,14,-6%,/
CCOc1ccccc1-n1c(SCC(=O)NC2CCCC2)nnc1-c1ccoc1C,-0.5,-6.3,-17,0.3,-3,-3%,-8
COCC1CCN(C(=O)C2CCC(=O)N(CCc3ccc(Cl)cc3)C2)CC1 (configuration not stated),-2.2,7.1,-4,-2.7,-10,/,-6
COC1CCCN(C(=O)c2ccc(OC3CCN(CCc4ccccc4)CC3)cc2)C1 (configuration not stated),1.1,-1.4,-11,2.6,-15,/,-11
CCCCOc1cc(C)nc(NCc2ccccc2)n1,0.5,2.5,-16,-2.7,-5,-7%,4
CN1OC[C@@H]2CN(S(=O)(=O)c3ccccc3)[C@H](c3cccc(Br)c3)C[C@@H]21,2.2,/,-1,/,/,3%,/
CCCCn1c(-c2ccc(Cl)cc2)nc2c(=O)n(C)c(=O)[nH]c21,1.1,/,2,/,/,5%,/
CCCN1CCc2c(sc(NC(=O)c3ccc(S(=O)(=O)N4CCCC4)cc3)c2C(N)=O)C1,41*,2.7,-14,8.6,-1,7%,-5
O=C(NC(NC(=S)Nc1ccc(Cl)c(Cl)c1)C(Cl)(Cl)Cl)c1ccco1 (configuration not stated),-1.9,-7.7,4,-3.1,-4,?,/
C#Cc1ccc([C@@H]2C=C(C(=O)N3CCOCC3)O[C@H](OCC)[C@H]2CCCO)cc1,6.4,1.8,-5,2.2,8,2%,-4
Cc1ccc([N+](=O)[O-])cc1-c1ccc(/C=C(\C#N)c2[nH]nc(N)c2C#N)o1,4.8,0.4,16,/,/,/,/
O=C(CCCc1ccccc1)Nc1ccc2c(c1)OCCO2,-0.1,-0.4,-9,0.3,9,/,-19
COc1ccc(/C=N/Nc2nc(C)nc(N)n2)cc1,-3.2,-1.0,-7,-2.3,2,-5%,21
CCN(CC)CCCN1C=C2C(=O)C(C)(OC(=O)CCC(=O)OC)C(=O)C(Br)=C2C=C1c1ccc(OC)cc1 (configuration not stated),1.4,0.1,10,8.6,32,/,-83
C=CCn1c(CCCNC(=O)c2ccccc2OC)nc2ccccc21,-3.7,0.6,-14,?,-7,3%,-2
CCCS(=O)(=O)N1CCN(C(=O)c2cccc(OC)c2)CC1,-0.5,4.7,1,-1.9,-8,5%,-1
CC(C#N)(CCc1ccccn1)CCc1ccccn1,0.1,/,1,/,/,-4%,/
CCOC(=O)c1ccc(NC(=O)CSc2ccc(-c3cccnc3)nn2)cc1,3.6,2.6,6,1.9,16,0%,-7
CC1CCN(c2nc3ccccc3nc2C(C#N)C(=O)OC2CCCCC2)CC1 (configuration not stated),0.4,1.1,2,20*,23,10%,-7
CN(C)S(=O)(=O)Nc1ccc(C(=O)O)cc1,-0.4,4.1,12,-3.1,-3,11%,5
O=C(Nc1cccn(Cc2c(Cl)cccc2Cl)c1=O)c1ccc(Cl)cc1,2.6,-3.8,2,-0.7,9,?,-19
CCOc1ccc(CC2CCC(=O)NC2=O)cc1 (configuration not stated),-4.2,6.8,0,0.4,-2,27%,0
CCCC[C@@H]1C=C(C(=O)O)[C@H](c2ccc3c(c2)OCO3)N1S(=O)(=O)c1ccc(C)cc1,-3.0,-3.8,16,/,/,6%,/
COC(=O)c1oc2ccccc2c1N,0.7,4.9,2,4.1,?,-4%,-5
CN(C)Cc1ccccc1Sc1ccccc1Br,-2.4,/,-1,1.4,-9,1%,/
CCCn1c(SCC(=O)Nc2nc(C)cs2)nnc1-c1cccnc1,1.1,-4.9,7,/,/,0%,-2
CC(C)(C)c1ccc(-c2nnc3sc(-c4ccncc4)nn23)cc1,-3.9,0.5,-3,/,/,-18%&-1%,-2
NC(=S)n1[nH]c(-c2ccc([N+](=O)[O-])cc2)c(N=Nc2ccc(O)cc2)c1=O,-4.2,1.2,-4,?,12,?,0
COc1cc(C(=O)NC(=S)NC(C)C)cc(OC)c1OC,0.9,1.6,78*,7.7,12,-14%,/
O=C(OCCN1CCOCC1)c1ccccc1,-0.5,-1.5,-4,2.4,-2,/,-22
CN1C[C@@H]2C[C@@H](C3=Cc4cc(Cl)ccc4OC3)N3CCC[C@@]23C1=O,-3.5,-3.0,-1,0.9,0,17%,-4
O=C(COC(=O)C1(c2ccccc2)CCCC1)N1CCNC1=O,2.0,6.6,-9,/,/,/,2
O=C(Nc1ccc(C(F)(F)F)cc1)c1ccc(NC(=O)C2CCCO2)cc1 (configuration not stated),23,8.1,-3,3.7,6,/,-1
COc1ccc(CCNc2nc(C)cc(C)c2C#N)cc1OC,4.8,-1.8,5,-1.2,1,1%,-11
Cn1c(SCC(=O)NNC(=O)Nc2ccc(Cl)cc2)nnc1-c1ccccc1,/,1.5,/,5.6,-8,?,3
O=C(Nc1ccccc1)c1ccc(S(=O)(=O)N2CCCCC2)cc1,-2.8,-2.3,5,5.1,-6,16%,/
Cc1cccc(NC(=O)c2cc(-c3cc(Cl)ccc3O)n[nH]2)c1,3.5,-0.2,2,4.5,3,3%,-7
O=C(Nc1ccccc1)Nc1ccc(F)c([N+](=O)[O-])c1,3.0,-1.9,11,-0.2,0,1%,60
COCCOC(=O)c1c(C)nc(SCC(=O)Nc2ccc(OC)cc2)c(C#N)c1-c1ccco1,-0.8,-4.0,-4,-3.7,1,3%,-9
Cc1ccc(S(=O)(=O)c2c(N)n(Cc3ccco3)c3nc4ccccc4nc23)cc1,-12,15,0,?,24,?,-5
CC(NCC(=O)Nc1ccccc1C(=O)NC1CC1)c1ccc(S(N)(=O)=O)cc1 (configuration not stated),1.0,+,-4,/,/,-18%,-1
COc1cc(C(=O)OCCn2c(=O)c3c(ncn3CCN(C)C)n(C)c2=O)cc(OC)c1OC,-0.3,3.4,2,-2.0,-2,-6%,-1
O=C(Nc1nc2ccccc2[nH]1)c1ccc(Cl)cc1,2.7,7.9,-9,-0.5,5,/,0
CC(C)CCC(C(=O)NC(C)c1ccccc1)C(=O)NC(C)c1ccccc1 (configuration not stated),3.1,4.5,-1,-0.4,-1,-6%,-17
Brc1ccc2ncnc(Nc3ccc(N4CCOCC4)cc3)c2c1,3.4,2.4,4,5.2,-30,29%,?
CCc1ccc2[nH]c(=O)c(C(c3nnnn3CCOC)N3CCN(c4ccccc4)CC3)cc2c1 (configuration not stated),-1.5,-0.7,5,6.4,-10,23%&9%,-2
COc1ccccc1CNC(=O)C1CC2Cn3c(nc4cc5ccccc5cc43)C2N1C (configuration not stated),-0.4,-7.6,-4,-2.4,-1,/,/
COC(C)(C)[C@@H](O)COc1c2ccoc2cc2oc(=O)ccc12,0.5,2.9,1,/,/,/,-12
CCOP(=O)(CC(C(C)=O)C(O)c1ccccc1)OCC (configuration not stated),2.0,1.2,-2,1.9,6,30%,-6
Cc1ccc(NC(=O)COC(=O)Cn2ccc(C(F)(F)F)n2)cc1Cl,-0.4,4.4,-2,/,/,/,26
Cc1ccc(C)c(NC(=O)CSc2nc3[nH]ncc3c(=O)[nH]2)c1,0.0,-2.8,4,4.8,-25,8%,-1
COc1ccc(C(C)NC(=S)NC2CCCC2)cc1OC (configuration not stated),1.4,-0.7,3,7.9,-33,3%,-9
CC(C)C(=O)N(Nc1nc2ccccc2s1)C(=O)C(C)C,3.3,4.3,4,-2.9,-21,2%,64
# Further records.
SMILES,HNF4A DNA FP,LANA-H2A inh,Beta2AR agonist,RanGTP-Impb inh,Calb FLC,Vif TR-FRET,ALR H2O2 inh
O=C(NN=Cc1ccccc1C(=O)O)c1ccc(NS(=O)(=O)c2cccs2)cc1,-2.6,-0.9,12,/,/,/,-13
Cc1ccc(S(=O)(=O)N(C)C)cc1NC(=O)C1CCCC1,-1.0,/,5,?,-4,/,/
CCCCCOc1ccc(Br)cc1CSC(=N)N,-0.7,/,11,-0.8,-12,/,/
Cc1ccc(C(=O)n2nc(-c3cccnc3)nc2N)cc1,4.6,4.2,10,6.9,3,3%,0
COc1ccccc1NS(=O)(=O)c1cn(C)cn1,1.0,0.8,5,3.0,2,/,-7
Cc1ccc(N2CC(C(=O)OCC(=O)C(C)(C)C)CC2=O)cc1 (configuration not stated),4.3,-0.7,1,-2.2,9,-6%,5
CCOc1ccc(OCCC(=O)OCC(=O)NC2CC2)cc1,-0.6,0.7,-4,-0.6,-4,4%,-12
CC(C)N1CCN(CC2COc3ccccc3O2)CC1 (configuration not stated),1.0,6.3,3,0.1,-1,2%,48
COc1cc2c(cc1OC)C(c1cccc(OC)c1OC)CC(=O)N2 (configuration not stated),2.2,1.8,3,-3.0,7,2%,-4
Cc1cc(Cl)cc(Br)c1OCCNCC(C)O (configuration not stated),-3.0,0.3,19,0.1,-4,-3%,-8
COc1ccc(/C=C2/C(=O)N(c3ccccc3)N=C2C)c(OC)c1,-0.4,2.7,6,1.8,2,/,22
O=C(COC(=O)c1ccc(=O)[nH]c1)Nc1cccc(S(=O)(=O)N2CCOCC2)c1,4.5,1.4,7,2.1,?,/,-2
Cc1nc(NC(=O)c2ccccc2)sc1-c1csc(Nc2ccc(C(=O)O)cc2)n1,-7.5,/,24,-6.7,-7,3%,/
COC(=O)c1csc(S(=O)(=O)N2CCOCC2)c1OC,3.3,3.3,7,1.0,?,-6%,-5
CN1CCN(C(=O)c2ccc(Cl)cc2)CC1,-0.8,-2.5,-2,-0.2,-7,/,-6
O=C(CN1C(=O)CS/C1=C\c1nc(-c2ccc(Cl)cc2)cs1)Nc1cccnc1Cl,6.9,3.3,8,-2.9,-3,2%,12
CCOc1ccc(N(CC(=O)NN=C2CCCC2)S(C)(=O)=O)cc1,2.2,-7.4,-6,2.3,7,-8%,8
Cc1ccccc1OCC(=O)Nc1cccc(C(=O)O)c1,2.8,/,-6,2.6,-11,18%,/
O=C(Nc1ccc(Br)cc1)N1CCCCC1,0.9,0.4,1,6.6,5,-3%,-11
CCCS(=O)(=O)NCCc1cc2ccc(OC)cc2[nH]c1=O,5.2,-0.3,-3,/,/,-3%,-46

# Among those listed so far, 3 have a tert-butyl group:
SMILES,HNF4A DNA FP,LANA-H2A inh,Beta2AR agonist,RanGTP-Impb inh,Calb FLC,Vif TR-FRET,ALR H2O2 inh
Cc1noc(/C=C/N(C)C)c1S(=O)(=O)N1CCC(C(=O)NC(C)(C)C)CC1,-1.1,3.5,-4,-2.5,-1,-5%,22
CC(C)(C)c1ccc(-c2nnc3sc(-c4ccncc4)nn23)cc1,-3.9,0.5,-3,/,/,-18%&-1%,-2
Cc1ccc(N2CC(C(=O)OCC(=O)C(C)(C)C)CC2=O)cc1 (configuration not stated),4.3,-0.7,1,-2.2,9,-6%,5
